High-throughput results (PubChem)
Lassa entry inh = inhibitors of Lassa virus binding or cell entry; Lassa virus pseudotype entry inhibition, cell reporter; control for the full effect not named in the record; Potency, µM (top dose mostly 37.9 µM), for inactives: at the highest dose activity change, negative = inhibition, usual class: inhibitors; actives 1.2% (n = 300,000); active means well fitted inhibition curve with a large enough effect; inconclusive means small, poorly fitted or top-dose-only effect, or effect the other way; inactive means flat fitted curve, though single readings scatter; tested in HEK293 cells; note: % is set by controls: 0 for no effect and ±100 for the full control effect; nearly all actives have a fitted effect of over 50% in size; luciferase read-out
Cruzain inh noDet = blocks cruzain activity in detergent-free assay | Potency, µM, inactives show max response, negative = inhibition, actives largely listed as inhibitors | P25779 | actives 2.3% (n = 200,000) | purified cruzain, Z-FR-AMC fluorescence, no detergent;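 note: plate controls were enzyme without inhibitor for no effect and buffer without enzyme for full effect; nearly all actives have a fitted effect of over 40% in size; top concentration of the series not given in the record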
Target sequence (P25779 123-467 limits assumed): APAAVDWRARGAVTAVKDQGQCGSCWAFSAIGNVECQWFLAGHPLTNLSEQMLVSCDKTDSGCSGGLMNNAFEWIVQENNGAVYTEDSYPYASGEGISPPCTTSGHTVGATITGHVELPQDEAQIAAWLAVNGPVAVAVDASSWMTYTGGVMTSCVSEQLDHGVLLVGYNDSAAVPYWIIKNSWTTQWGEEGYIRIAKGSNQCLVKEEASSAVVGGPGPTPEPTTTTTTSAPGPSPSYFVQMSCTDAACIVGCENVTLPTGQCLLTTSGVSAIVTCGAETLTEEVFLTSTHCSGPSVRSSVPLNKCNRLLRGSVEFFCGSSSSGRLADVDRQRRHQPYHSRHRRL
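Purified cruzain at 1.5 nM, pre-incubated 15 min with compound at room temperature in 100 mM sodium acetate pH 5.5, 5 mM DTT, 0.00005% Triton X-100. Reaction started with 2 uM Z-FR-AMC; AMC fluorescence increase over 60 s gives rate.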
SARS PLP yeast = blocks SARS-CoV papain-like protease in a yeast assay | actives 0.19% (n = 330,000) | S. cerevisiae expressing SARS-CoV PLpro, growth rescue; control for the full effect not named in the record | Potency, µM (titrated, usually from 32.9 µM), inactives show at the top dose activity, positive = growth rescue; active means well fitted rising curve with a large enough effect; inconclusive means small, poorly fitted or top-dose-only effect; inactive means no such curve, though single readings can be large or run the other way; note: 0% is about no effect; nearly all actives have a fitted effect of over 55% in size; growth read by luminescence after 48 h
Cruzain Triton = cruzain (T. cruzi) inhibition with detergent; AID 1478; Potency, µM, for the others: max response, negative = inhibition, actives largely listed as inhibitors; actives 0.43% (n = 200,000); P25779; purified cruzain, Z-FR-AMC fluorescence, 0.01% Triton;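 note: plate controls were neutral wells for no effect and buffer without enzyme for full effect; nearly all actives have a fitted effect of over 40% in size; top concentration of the series not given in the record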
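Purified cruzain (1.5 nM final) was preincubated with compounds for 15 min at room temperature in 100 mM sodium acetate pH 5.5, 5 mM DTT, 0.01% Triton X-100. Reaction started with 2 uM Z-FR-AMC; AMC fluorescence change over 60 s gave activity.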
Marburg entry inh = inhibitors of Marburg virus binding or cell entry; Marburg virus pseudotyped entry inhibition, cell reporter; control for the full effect not named in the record; about a third of the inactives were read at about 46 µM; Potency, µM (titrated, usually from 37.8 µM), inactives show top-dose activity change, negative = inhibition, usual class: inhibitors; actives 1.8% (n = 300,000); active = well fitted inhibition curve with a large enough effect; inconclusive = small, poorly fitted or top-dose-only effect, or effect the other way; inactive = flat fitted curve, though single readings scatter; tested in HEK293 cells; about a fifth of its hits are not listed in these tables; note: % is set by controls: 0 for no effect and ±100 for the full control effect; luciferase read-out
StopGo reporter = FMDV 2A StopGo reporter, luciferase signal. human cells with a luciferase reporter of 2A StopGo recoding; control for the full effect not named in the record. Potency, µM (doses to about 57.9 µM), inactives show top-dose signal change, negative = less light. actives 1.2% (n = 410,000). AID 1159524; active = well fitted falling curve with a large enough effect; inconclusive = small, poorly fitted or top-dose-only effect; inactive = no such curve, though single readings can be large or run the other way; tested in HEK293T cells; note: % is set by controls: 0 for no effect and ±100 for the full control effect; nearly all actives have a fitted effect of over 45% in size; luciferase light after 4 h
RE007 growth inh = less growth of the S. pombe RE007 Vpr strain; S. pombe RE007 Vpr strain, BacTiter-Glo ATP luminescence, 24 h; control for the full effect not named in the record; AID 651644; Potency, µM (highest dose often 92.2 µM), for inactives: at the highest dose activity change, negative = less growth; actives 0.21% (n = 360,000); active = well fitted falling curve with a large enough effect; inconclusive = small, poorly fitted or top-dose-only effect; inactive = no such curve, though single readings can be large or run the other way;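 note: % is set by controls: 0 for no effect and ±100 for the full control effect; nearly all actives have a fitted effect of over 50% in size; the assay follows cell death caused by Vpr and the record does not say whether a fall means rescue or toxicity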
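Fission yeast strain RE007, carrying one chromosomally integrated HIV-1 vpr copy, was seeded at OD 0.01 in PMG+AL medium with 23 nL pinned compound. After 24 h at 30 °C and 99% humidity, viability was read by BacTiter-Glo luminescence.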
NS1 inh = inhibitors of influenza NS1 protein function; S. cerevisiae slowed by influenza A NS1, growth recovery by OD600; Potency, µM (series often up to 46.1 µM), for the others: at the highest dose activity, positive = more growth; actives 0.4% (n = 270,000); AID 2326; active means well fitted rising curve with a large enough effect; inconclusive means small, poorly fitted or top-dose-only effect; inactive means no such curve, though single readings can be large or run the other way; note: nearly all actives have a fitted effect of over 50% in size
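In this qHTS, NS1 from influenza A is expressed in budding yeast, where it slows growth. Cells are switched from glucose to 2% galactose medium (pH 6.0, -URA), treated with compound, and growth recovery is read at OD600.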
* marks the source's active call; other numbers are inactive results; ? = inconclusive; · = not tested or not shown; [ ] = dose if it differs, or a comment. Unless noted, calls come from the whole dose curve; as a rule, active = well fitted curve in the direction sought with a large enough effect; inconclusive = small, poorly fitted or top-dose-only effect, or another doubt; inactive = no such curve, though single readings can be large; an effect the other way counts as inactive or inconclusive. Potency is the fitted concentration of half-maximal effect.

SMILES	Lassa entry inh	Cruzain inh noDet	SARS PLP yeast	Cruzain Triton	Marburg entry inh	StopGo reporter	RE007 growth inh	NS1 inh
O=C(CSc1nnc2scc(-c3ccccc3)n12)Nc1ccc(Cl)cc1	8%[46.1 µM]	-9%	·	-2.5%	6%[46.1 µM]	-23%	·	·
Cc1cc(C(=O)OCC(=O)NC(=O)NC(C)(C)C)c(C)o1	-15%	8%	-15%	2.9%	-2%	0%	?	-4%
Cc1c(Cc2ccccc2)c(=O)oc2cc(OCC(=O)NCC(O)c3ccccc3)ccc12 (stereo not drawn)	·	·	-2%	·	·	?	4%	8%
COc1ccccc1C(=O)NNC(=O)c1ccc(NS(=O)(=O)c2cccs2)cc1	5%	·	-2%	·	-4%	11%	-21%	-8%
COC(=O)c1c(NC(=O)c2nc(SCc3ccc(C)cc3)ncc2Cl)sc2c1CCCC2	0%[46.1 µM]	1%	·	-0.4%	-17%[46.1 µM]	65%[activator]	·	·
COc1cc(/C=N/NC(=O)CC2(C)OCCCO2)ccc1OCc1ccc(Cl)cc1Cl	?	?	-12%	-6.4%	?	-17%	2%	-12%
CON(C)S(=O)(=O)c1ccc2c(c1)N(Cc1ccc(C)cc1)C(=O)C1CCCN21 (stereo not drawn)	0%[46.1 µM]	·	1%	·	-3%[46.1 µM]	-14%	6%	6%
CSC1=NSC2=NC(=O)/C(=C\c3ccc(OC(=O)c4ccco4)cc3)C(=N)N12	23%	·	-1%	·	14%[46.1 µM]	58%[activator]	-26%	3%
CCC(C)(C)n1nnnc1C(CC(C)C)N1CCC(C(N)=O)CC1 (stereo not drawn)	4%	4%	-3%	1.0%	-16%[46.1 µM]	3%	-13%	2%
COc1ccc(OCC(=O)OCCN2C(=O)c3ccccc3C2=O)cc1	1%	-4%	-3%	0.7%	3%	-19%	-10%[3.69 µM]	8%
CCN1CCN(C(=O)c2ccc(C(F)(F)F)cc2)CC1	·	·	1%	·	2%[46.1 µM]	-1%	4%	6%
CC(C)(C)NC(=O)CSC(=Nc1cccc(F)c1)NC#N	?	-4%	8%	-1.9%	?	?	2%	25%
CCCNC(=O)c1ccc2c(=O)c(O)c(C)[nH]c2c1	·	·	29%	·	·	3%	3%	-4%
CCN1CCN(c2nc3sc4c(c3c3ncnn23)CC(C)CC4)CC1 (stereo not drawn)	12%	-28%	-6%	-4.4%	?	14%	-2%	-3%
COC(=O)C1CCN(C(=O)COC(=O)C2CCN(S(=O)(=O)c3c(Cl)cccc3Cl)CC2)CC1	17%	·	-5%	·	?	-10%	13%	·
O=C(Cc1ccc([N+](=O)[O-])cc1)Nc1ccc(Br)cn1	5%	·	-2%	·	?	13%	-22%	2%
c1ccc(-c2nc3ccccc3c3nncn23)cc1	?	5%	0%	3.7%	-36%	5%	-13%	-8%
O=C(Nc1ccc2nc3n(c(=O)c2c1)CCCCC3)C(=O)N1CCN(c2ccccc2)CC1	·	·	1%	·	·	0%	-9%	1%
O=C(NCCc1ccccc1)C1COc2ccccc2O1 (stereo not drawn)	·	·	2%	·	·	39%[activator]	-13%	-4%
Cc1cc2cc(OCc3ccccc3)ccc2n1C	·	·	-2%	·	·	53%[activator]	-7%	27%
COc1ccc(N/C=C(\C2OC(=O)c3ccccc32)[N+](=O)[O-])cc1 (stereo not drawn)	-25%	·	0%	·	?	-4%	4%	-1%
NC(=O)C[n+]1cccc(C(=O)Nc2ccccc2)c1	·	·	0%	·	·	-18%	28%	4%
COCC(=O)OCn1nnc2ccccc2c1=O	-3%	-9%	-13%	-4.1%	1%	8%	16%	1%
COc1cc(NC(=O)Cc2noc3ccccc23)cc(OC)c1OC	0%[46.1 µM]	27%	·	-2.6%	·	-10%	·	·
COC(=O)c1c(-c2cccs2)csc1NC(=O)c1ccc(Br)cc1	?	-20%	·	-7.5%	?	27%	·	·
CC(Sc1ccccc1)C(=O)NN=C1CCN(C)CC1 (stereo not drawn)	1%	·	-5%	·	?	6%	-25%	-2%
Cc1ccc(S(=O)(=O)N(C)CC(=O)OCC(=O)c2ccc3c(c2)NC(=O)CO3)cc1	3%[46.1 µM]	·	-9%	·	-22%[46.1 µM]	8%	-10%	·
N#C/C(=C\c1ccc(OC(F)F)cc1)C(=O)N1CCCCC1	·	·	-13%	·	·	2%	-1%	-46%
CC(=O)Nc1ccc(NC(=O)COc2ccc(Cl)cc2Cl)cc1	·	·	0%	·	·	5%	-5%	3%
O=C(/C=C/c1ccc(F)cc1)N1CC[C@@]2(O)CCCC[C@H]2C1	?	·	-5%	·	14%[46.1 µM]	5%	39%	3%
CCc1ccccc1N1CC23C=CC(O2)C(C(=O)O)C3C1=O (stereo not drawn)	·	-2%	4%	4.9%	·	-5%	2%	4%
COc1ccc(OC)c(Nc2nc(-c3ccc(C)cc3)nc3ccccc23)c1	20%[46.1 µM]	16%	·	1.6%	·	-15%	·	·
COc1ccc(C(=O)c2nccc3cc(OC)c(OC)cc23)cc1OC	-6%	·	-4%	·	23%	-10%	15%	·
O=C(CSc1nnc(CNC(=O)c2c(F)cccc2Cl)o1)Nc1cccc(F)c1	17%[46.1 µM]	-3%	·	-3.8%	?	-13%	·	·
COC(=O)c1c(N)n(-c2cc(Cl)cc(Cl)c2)c2nc3ccccc3nc12	20%[46.1 µM]	-3%	·	-2.9%	-6%[46.1 µM]	-15%	·	·
O=C(NCC1CCCO1)C1CCN(S(=O)(=O)c2cccnc2)CC1 (stereo not drawn)	2%	-2%	7%	6.1%	18%	-11%	-6%	0%
O=C(CSC1=N/C(=C/c2ccc(Cl)c(Cl)c2)C(=O)N1c1ccccc1F)NC1CC1	?	?	0%	-5.3%	?	?	4%	1%
O=C(NCC1CCCO1)C(=O)N/N=C/c1ccc(O)c(Cl)c1 (stereo not drawn)	1%	·	-1%	·	12%[46.1 µM]	-7%	-15%	2%
O=C(c1ccco1)N(Cc1cccnc1)c1nc2ccc(F)cc2s1	-17%[46.1 µM]	0%	·	-0.3%	·	14%	·	·
Cc1cc(C)n2cc(COc3ccc4ccccc4c3)nc2n1	?	?	10%	-3.4%	?	12%	-5%	1%

An excerpt from above in order of formula weight, falling.
SMILES	Lassa entry inh	Cruzain inh noDet	SARS PLP yeast	Cruzain Triton	Marburg entry inh	StopGo reporter	RE007 growth inh	NS1 inh
COC(=O)c1c(-c2cccs2)csc1NC(=O)c1ccc(Br)cc1	?	-20%	·	-7.5%	?	27%	·	·
Cc1cc(C)n2cc(COc3ccc4ccccc4c3)nc2n1	?	?	10%	-3.4%	?	12%	-5%	1%
COCC(=O)OCn1nnc2ccccc2c1=O	-3%	-9%	-13%	-4.1%	1%	8%	16%	1%

Later entries
SMILES	Lassa entry inh	Cruzain inh noDet	SARS PLP yeast	Cruzain Triton	Marburg entry inh	StopGo reporter	RE007 growth inh	NS1 inh
OCCC1CN(Cc2cc(F)ccc2-n2cccn2)CCN1Cc1ccc(F)cc1 (stereo not drawn)	·	·	1%	·	·	-27%	5%	0%
O=C1/C(=C/c2cccnc2)Oc2cc(OS(=O)(=O)c3ccc(Cl)cc3)ccc21	?	-6%	9%	4.4%	?	-18%	-6%	3.5µM*
CCOc1ccc(CNC(=O)c2cc3c(s2)-c2ccccc2OC3)cc1	·	-8%	·	-15%	12%[46.1 µM]	17%	·	·
O=C(CSc1nc2ccccc2n1CCc1ccccc1)NC1CCS(=O)(=O)C1 (stereo not drawn)	?	1%	3%	-4.2%	3%	-2%	0%	-3%
CN(C)c1ccc(P(=O)(OC2CCCCC2)C(O)c2cccnc2)cc1 (stereo not drawn)	1%	3%	4%	0.9%	4%	10%	0%	-5%
O=C(N/N=C/c1ccc2c(c1)OCO2)/C(=C/c1ccc2c(c1)OCO2)NC(=O)c1ccccc1	?	?	10%	-4.8%	0%	-19%	-21%	12%
O=c1cc2c(nn1Cc1cccc(Cl)c1)-c1ccccc1CC2	-15%	3%	-23%	-11%	-12%[46.1 µM]	-5%	6%	-116%
COc1ccc(C2Sc3nncn3N2Cc2ccc(C#N)cc2)cc1 (stereo not drawn)	-14%	-4%	8%	-1.5%	5%	5%	-13%	2%
CCCCc1c(C)nc2ccccc2c1SCCC#N	-1%[46.1 µM]	1%	-25%	-9.0%	?	-25%	14%	-25%
CCc1c(C)nc(SCC(=O)c2cccs2)c(C#N)c1C	?	-1%	-9%	-4.9%	-3%	26%	-21%	-6%
COc1ccc(CN2C(=O)CC(=O)NC2=S)cc1	·	·	0%	·	·	-18%	2%	?
CSc1ccccc1C(=O)C1CCCN(C(=O)c2ccc(N3CCOCC3)cc2)C1 (stereo not drawn)	1%[46.1 µM]	·	1%	·	26%[46.1 µM]	-4%	-3%	0%
O=C(NC1CCN(C(=O)NC2CCCCC2)CC1)c1ccco1	29%	-7%	0%	1.6%	?	0%	31%	-1%
CCSC1=N/C(=C\c2ccc(OC)cc2)C(=O)N1	?	-5%	-11%	-9.2%	-8%	50%[activator]	-2%	5%
CCCc1cc(=O)oc2cc(C)cc(OCC(=O)NC(Cc3c[nH]c4ccc(O)cc34)C(=O)O)c12 (stereo not drawn)	·	·	-11%	·	·	-19%	-13%	19%
COc1cc(C(=O)NC(=S)Nc2ccc3c(c2)C(=O)N(C)C3=O)cc(OC)c1OC	19%	20%	2%	-4.0%	10%	?	·	15%
CCOC(=O)c1c(C)n(C)c2ccc(OCC(O)Cn3nc(C)c(Br)c3C)cc12 (stereo not drawn)	?	?	-39%	-9.6%	?	-20%	0%	-35%
Cc1ccc(-c2csc(/C(C#N)=C/Nc3ccccc3SC(F)(F)F)n2)c(C)c1	5%	-22%	2%	-2.5%	-15%	-5%	0%	8%
CC(=O)c1ccc(NC(=O)C2Cc3ccccc3CN2C(=O)c2ccccc2)cc1 (stereo not drawn)	17%	-11%	-3%	-2.8%	-28%	10%	9%	-2%
Cc1ccc(NC(=O)C2CCCN2C(=O)OCc2ccccc2)cc1C (stereo not drawn)	·	·	?	·	·	-2%	-8%	-12%
O=C1c2ccccc2C(=O)c2c1cccc2N1CCOCC1	-12%	-10%	2%	-2.7%	9%	2%	-22%	-101%
